Vaccinia inh: blocks a specific stage of Vaccinia orthopoxvirus infection; Vaccinia-infected cells, mCherry/Venus stage reporter fluorescence; hits give low values; some inactives read as strong as hits; actives 0.01% (n = 89,000); activity change (mCherry), % (no concentration beside the values); AID 1053133;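 active = mCherry past -33% and 40 or more points under the early reporter, replicates agreeing; inconclusive = past -33% without that gap or agreement; tested in A549 cells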;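 also: scaled between vehicle wells and reference inhibitor wells; 23 nL library stock went into each well; one replicate is shown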
Vaccinia inh Venus: recorded beside Vaccinia inh, whose call it bears; activity change (Venus), %; measured here: Venus reporter, other viral stage;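 negative = less Venus signal; first of two replicates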
Numbers without * were called inactive; ? = inconclusive; nt = no result given; & = joins results of further samples. Only part of the results is shown. The share of hits here may be higher or lower than overall.

item	Molecule	Vaccinia inh	Vaccinia inh Venus
1	C[C@@H]1CN([C@H](C)CO)C(=O)c2cccc(NS(=O)(=O)c3ccc(Cl)cc3)c2O[C@@H]1CN(C)C(=O)Nc1cccc2ccccc12	-19	-9
2	Cc1ccc(S(=O)(=O)N(C)C[C@@H]2Oc3ccc(NC(=O)Nc4ccc(F)cc4)cc3CC(=O)N([C@H](C)CO)C[C@H]2C)cc1	3	7
3	COC(=O)C[C@@H]1CC[C@H]2[C@@H](COC[C@H](O)CN2C(=O)Nc2cccc(F)c2)O1	15	8
4	O=C(Cc1ccccn1)N1CC(=O)N2[C@H](C1)[C@H](c1ccc(-c3ccccc3)cc1)[C@@H]2CO	-4	-7
5	N#C[C@@H]1[C@H](c2ccccc2-c2ccccc2F)[C@H](CO)N1C(=O)C1CC1	7	5
6	C[C@@H]1CCCCO[C@H](CN(C)CC2CCCCC2)[C@H](C)CN([C@H](C)CO)C(=O)c2cc(NC(=O)Nc3ccc(C(F)(F)F)cc3)ccc2O1	-17	-26
7	O=C(c1cccnc1)N1CC(=O)N2[C@H](C1)[C@H](c1ccc(/C=C/c3ccccc3)cc1)[C@@H]2CO	?	nt
8	COc1ccc(NC(=O)N2C[C@H](O)COC[C@H]3O[C@@H](CC(=O)N4CCOCC4)CC[C@@H]32)cc1	13	6
9	CCCNC(=O)C[C@H]1C[C@@H]2c3cc(NC(=O)CC4CC4)ccc3O[C@@H]2[C@@H](CO)O1	11	5
10	COc1ccc(S(=O)(=O)Nc2ccc3c(c2)C(=O)N([C@@H](C)CO)C[C@@H](C)[C@H](CN(C)C(=O)Nc2ccc(F)cc2)O3)cc1	15	7
11	CO[C@@H]1CN(C)C(=O)c2cc(NC(=O)Nc3ccccc3F)ccc2OC[C@@H](C)N(CCC(F)(F)F)C[C@H]1C	-14	0
12	COc1ccccc1C#Cc1ccc2c(c1)[C@@H]1[C@@H](CCN1S(=O)(=O)c1ccc(F)cc1)[C@@H](CO)N2	-2	14
13	COC(=O)C[C@@H]1C=C[C@H](NC(=O)Nc2ccc(C(F)(F)F)cc2)[C@@H](CO)O1	-2	8
14	CC(C)NC(=O)Nc1ccc2c(c1)C(=O)N([C@H](C)CO)C[C@@H](C)[C@@H](CN(C)Cc1ccncc1)OCCCC[C@H](C)O2	34	6
15	Cc1noc(C)c1S(=O)(=O)Nc1cccc2c1O[C@@H](CN(C)Cc1ccncc1)[C@@H](C)CN([C@H](C)CO)C2=O	21	24
16	C[C@@H]1CN([C@@H](C)CO)C(=O)c2cc(NC(=O)c3ccncc3)ccc2O[C@@H]1CN(C)S(=O)(=O)c1ccccc1	7	7
17	COc1cccc(CNC(=O)[C@@H]2[C@@H](CO)[C@@H]3Cn4c(ccc(-c5cncnc5)c4=O)[C@H]2N3C(C)=O)c1	13	1
18	C[C@@H]1CCCCO[C@H](CN(C)C(=O)Nc2ccc(C(F)(F)F)cc2)[C@H](C)CN([C@@H](C)CO)C(=O)c2cc(NC(=O)c3ccncc3)ccc2O1	?	nt
19	C[C@@H]1CCCCO[C@H](CN(C)S(=O)(=O)c2ccc(Cl)cc2)[C@H](C)CN([C@@H](C)CO)C(=O)c2cc(NS(=O)(=O)c3ccc(F)cc3)ccc2O1	-19	-12
20	C[C@H](NC(=O)C[C@H]1C[C@@H]2c3cc(NC(=O)C4CCOCC4)ccc3O[C@@H]2[C@@H](CO)O1)c1ccccc1	4	0
21	COc1ccc(CN(C)C[C@@H]2OCCCC[C@@H](C)Oc3ccc(NC(=O)NC4CCCCC4)cc3C(=O)N([C@H](C)CO)C[C@H]2C)cc1	?	nt
22	Cc1noc(C)c1NC(=O)Nc1ccc2c(c1)C(=O)N([C@@H](C)CO)C[C@H](C)[C@H](CN(C)C(=O)Nc1ccc(C(F)(F)F)cc1)O2	9	8
23	C[C@H]1CCCCO[C@H](CN(C)Cc2ccc(Cl)c(Cl)c2)[C@@H](C)CN([C@@H](C)CO)C(=O)c2cc(NS(=O)(=O)c3ccccc3)ccc2O1	?	nt
24	CC(C)C#Cc1cnc2c(c1)C(=O)N([C@@H](C)CO)C[C@@H](C)[C@@H](CN(C)C(=O)c1cccnc1)O2	12	14
25	CO[C@H](CN(C)C(=O)c1cnccn1)[C@@H](C)CN([C@H](C)CO)S(=O)(=O)c1ccccc1	9	11
26	C/C=C/c1ccc([C@@H]2[C@@H](CO)N(C(=O)C3CC3)C23CN(C(=O)NC(C)C)C3)cc1	8	5
27	CCC(=O)Nc1ccc2c(c1)C(=O)N(C)[C@@H]1CC[C@H](CC(=O)NCCN3CCCCC3)O[C@@H]1CO2	5	10
28	CO[C@@H]1CN(C)C(=O)c2ccc(NC(=O)Nc3cccc(F)c3)cc2OC[C@H](C)N(C(C)=O)C[C@H]1C	11	5
29	O=C(Nc1ccccc1F)N1CCCCN2[C@H](CO)[C@H](c3ccc(C#Cc4cccnc4)cc3)[C@@H]2C1	-18	-18
30	COc1cccc(-c2ccc3c(c2)O[C@H](CN(C)C(=O)c2ccccc2F)[C@H](C)CN([C@@H](C)CO)S3(=O)=O)c1	?	nt
31	C[C@@H]1CN([C@@H](C)CO)C(=O)c2cccc(NC(=O)c3ccncc3)c2O[C@@H]1CN(C)S(C)(=O)=O	17	6
32	C[C@@H]1CCCCO[C@@H](CN(C)S(=O)(=O)c2cn(C)cn2)[C@H](C)CN([C@@H](C)CO)C(=O)c2cc(NC(=O)CCC(F)(F)F)ccc2O1	13	20
33	C[C@@H]1CN([C@@H](C)CO)C(=O)c2cc(NC(=O)CCCN(C)C)ccc2O[C@H]1CN(C)S(C)(=O)=O	12	14
34	CO[C@H]1CN(C)C(=O)c2ccc(NS(C)(=O)=O)cc2OC[C@@H](C)N(Cc2cccnc2)C[C@H]1C	11	9
35	C[C@@H]1CCCCO[C@@H](CN(C)Cc2ccc(Cl)c(Cl)c2)[C@H](C)CN([C@H](C)CO)C(=O)c2cc(N(C)C)ccc2O1	?	nt
36	CO[C@@H]1CN(C)C(=O)c2ccc(NS(=O)(=O)c3cccc(F)c3)cc2OC[C@H](C)NC[C@H]1C	18	16
37	CCNC(=O)C[C@@H]1CC[C@H](NC(=O)C2CC2)[C@@H](CO)O1	10	16
38	COc1ccc(S(=O)(=O)N(C)C[C@H]2OCCCC[C@H](C)Oc3ccc(NS(C)(=O)=O)cc3C(=O)N([C@@H](C)CO)C[C@H]2C)cc1	7	-3
39	C[C@H](CO)N1C[C@H](C)[C@@H](CN(C)S(C)(=O)=O)Oc2cc(C#Cc3ccccc3)ccc2S1(=O)=O	-30	-24
40	O=C(Cc1ccccn1)NCC[C@H]1CC[C@H](NC(=O)CN2CCOCC2)[C@H](CO)O1	-2	4

Some of the entries so far, as labelled records:
(34) CO[C@H]1CN(C)C(=O)c2ccc(NS(C)(=O)=O)cc2OC[C@@H](C)N(Cc2cccnc2)C[C@H]1C
  Vaccinia inh: 11 | Vaccinia inh Venus: 9
(37) CCNC(=O)C[C@@H]1CC[C@H](NC(=O)C2CC2)[C@@H](CO)O1
  Vaccinia inh: 10 | Vaccinia inh Venus: 16
(36) CO[C@@H]1CN(C)C(=O)c2ccc(NS(=O)(=O)c3cccc(F)c3)cc2OC[C@H](C)NC[C@H]1C
  Vaccinia inh: 18 | Vaccinia inh Venus: 16

Additional results follow:
item	Molecule	Vaccinia inh	Vaccinia inh Venus
41	CNC[C@@H]1Oc2cc(C#Cc3ccccc3OC)ccc2S(=O)(=O)N([C@@H](C)CO)C[C@H]1C	?	nt
42	C[C@H](CO)N1C[C@H](C)[C@H](CN(C)C(=O)C2CCC2)Oc2cc(C#CC(C)(C)O)ccc2S1(=O)=O	23	18
43	COc1ccccc1NC(=O)N1CC(=O)N2[C@@H](CO)[C@H](c3ccc(C#Cc4ccccc4)cc3)[C@@H]2C1	?	nt
44	C[C@H](CO)N1C[C@H](C)[C@@H](CN(C)S(=O)(=O)c2cn(C)cn2)Oc2c(NC(=O)c3cnccn3)cccc2C1=O	17	10
45	C/C=C/c1ccc(C2[C@@H]3CN(C(C)=O)C[C@H]2N3)cc1 (some centres undefined)	?	0
46	O=C(NC[C@@H]1CC[C@H]2[C@H](CN2S(=O)(=O)c2ccccc2)O1)NC1CCCCC1	3	7
47	COc1ccc(CNC(=O)C[C@H]2CC[C@@H]3[C@H](COc4ccc(NC(=O)C5CC5)cc4C(=O)N3C)O2)cc1	-1	-9
48	COc1cccc(S(=O)(=O)N[C@H]2CC[C@H](CCn3cc(-c4ccc(F)cc4)nn3)O[C@H]2CO)c1	-10	1
49	O=C(NCC[C@H]1CC[C@H](NS(=O)(=O)c2ccc(F)cc2)[C@@H](CO)O1)c1ccc2c(c1)OCO2	-8	-1
50	C[C@H](CO)N1C[C@H](C)[C@@H](CN(C)Cc2ccc3c(c2)OCO3)Oc2ccc(NC(=O)CCCN(C)C)cc2C1=O	4	1
51	COc1ccc(CN(C)C[C@H]2OCCCC[C@@H](C)Oc3ccc(NC(=O)CCC(F)(F)F)cc3C(=O)N([C@H](C)CO)C[C@H]2C)cc1	-31	-23
52	CO[C@H]1CC[C@H]2CCN(C)C(=O)[C@H](C)[C@@H](OC)CN(C)C(=O)c3cc(C#N)ccc3OC[C@H]1O2	27	27
53	Cc1noc(C)c1S(=O)(=O)Nc1ccc2c(c1)C(=O)N([C@@H](C)CO)C[C@@H](C)[C@@H](CN(C)Cc1ccc(Cl)c(Cl)c1)O2	?	nt
54	C[C@H](CO)N1C[C@H](C)[C@@H](CN(C)Cc2ccncc2)Oc2c(NC(=O)CCCCCC(=O)Nc3ccccc3N)cccc2C1=O	1	-6
55	COc1ccc(S(=O)(=O)N[C@H]2CC[C@H](CC(=O)NCCc3ccncc3)O[C@H]2CO)cc1	-5	3
56	COc1ccc(C#Cc2ccc3c(c2)[C@]2(C(=O)N3)[C@H](c3ccccc3OCCO)N3[C@H](c4ccccc4)[C@H](c4ccccc4)OC(=O)[C@H]3[C@@H]2C(=O)NC[C@H](O)c2ccccc2)cc1	-19	-21
57	O=C(C[C@@H]1CC[C@H](NC(=O)c2ccc3c(c2)OCO3)[C@@H](CO)O1)NCc1ccc(Oc2ccccc2)cc1	-12	-12
58	CC(C)COC(=O)N(C)C[C@H]1OCc2cnnn2CCCC(=O)N([C@H](C)CO)C[C@H]1C	8&7	3&8
59	C[C@@H]1CCCCO[C@@H](CN(C)C(=O)CCC(F)(F)F)[C@H](C)CN([C@@H](C)CO)C(=O)c2cc(NC(=O)Nc3ccccc3)ccc2O1	-7	4
60	CN(C)CC(=O)N1[C@H](C(=O)NC2CCC2)[C@@H](CO)[C@@H]2Cn3c(ccc(-c4ccccc4)c3=O)[C@@H]21	6	5

Structural class, the entries above with two or more sulfur atoms
item	Molecule	Vaccinia inh	Vaccinia inh Venus
19	C[C@@H]1CCCCO[C@H](CN(C)S(=O)(=O)c2ccc(Cl)cc2)[C@H](C)CN([C@@H](C)CO)C(=O)c2cc(NS(=O)(=O)c3ccc(F)cc3)ccc2O1	-19	-12
38	COc1ccc(S(=O)(=O)N(C)C[C@H]2OCCCC[C@H](C)Oc3ccc(NS(C)(=O)=O)cc3C(=O)N([C@@H](C)CO)C[C@H]2C)cc1	7	-3
39	C[C@H](CO)N1C[C@H](C)[C@@H](CN(C)S(C)(=O)=O)Oc2cc(C#Cc3ccccc3)ccc2S1(=O)=O	-30	-24

Further results.
item	Molecule	Vaccinia inh	Vaccinia inh Venus
61	COCC#Cc1cnc2c(c1)C(=O)N([C@H](C)CO)C[C@H](C)[C@H](CN(C)C(=O)Nc1cc(F)ccc1F)O2	13	4
62	COCC(=O)N(C)C[C@@H]1Oc2ncc(C#C[C@H](C)O)cc2C(=O)N([C@@H](C)CO)C[C@@H]1C	2	4
63	C[C@H]1CN([C@@H](C)CO)C(=O)c2cc(NC(=O)Nc3ccc(C(F)(F)F)cc3)ccc2O[C@H]1CN(C)S(=O)(=O)c1ccc(F)cc1	0	10
64	CCCNC(=O)Nc1ccc2c(c1)OC[C@@H](C)N(C(=O)C1CCC1)C[C@@H](C)[C@@H](OC)CN(C)C2=O	-8	-9
65	Cc1ccc(S(=O)(=O)Nc2ccc3c(c2)C(=O)N([C@@H](C)CO)C[C@H](C)[C@H](CN(C)Cc2ccncc2)OCCCC[C@H](C)O3)cc1	-4	-10
66	CCCNC(=O)N1[C@H](CO)[C@@H]2c3ccccc3N(C)C[C@@H]21	4	3
67	C[C@@H]1CN([C@H](C)CO)C(=O)c2cc(NC(=O)Cc3ccccc3)ccc2O[C@H]1CN(C)C(=O)Nc1ccccc1	10	9
68	C[C@H](CO)N1C[C@H](C)[C@H](CN(C)S(=O)(=O)c2ccc(F)cc2)Oc2ccc(NC(=O)Nc3ccc(C(F)(F)F)cc3)cc2CC1=O	?	nt
69	CC(C)NC(=O)N(C)C[C@H]1OCCCC[C@H](C)Oc2ccc(NC(=O)CCC(F)(F)F)cc2C(=O)N([C@@H](C)CO)C[C@H]1C	10	7
70	CCCN(C)C[C@H]1Oc2ncc(-c3ccccc3F)cc2C(=O)N([C@H](C)CO)C[C@@H]1C	2	1
71	COc1cccc(NC(=O)N(C)C[C@@H]2Oc3ncc(C#Cc4ccc(F)cc4)cc3C(=O)N([C@H](C)CO)C[C@H]2C)c1	-15	-12
72	CN(C)CC#Cc1ccc([C@H]2[C@H](CO)N3CCCCN(S(=O)(=O)c4ccccc4)C[C@@H]23)cc1	-4	-1
73	CCCN(C)C[C@H]1Oc2ncc(Br)cc2C(=O)N([C@H](C)CO)C[C@@H]1C	12	13
74	COc1cccc(NC(=O)N(C)C[C@@H]2Oc3ncc(C#Cc4ccc(F)cc4)cc3C(=O)N([C@@H](C)CO)C[C@H]2C)c1	-30	-27
75	O=C(CN1CCOCC1)N1CCCCN2[C@@H](CO)[C@H](c3ccc(-c4ccccc4)cc3)[C@@H]2C1	16	-1

Compound activity from PubChem.
